Assay outcomes (PubChem)
Autofluor counter – flagged as autofluorescent in microsphere protease counterscreen | fluorescence intensity (no concentration beside the values) | 360,000 tested, 3.1% active | compound autofluorescence counterscreen, microsphere flow cytometry; stronger effect = higher value;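 active means at least 3 SD above the mean of all compounds, about 16000 in these data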;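 further: 100 nL of 1 mM stock went into each well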
The depositor's hits bear a star. These rows are one share of the data; the hit share may differ from the screen's.

Molecule	Autofluor counter
O=C(NC1CCCCCC1)c1[nH]c(C(F)(F)F)nc1-c1ccccc1	4297
COc1ccc(C(=O)C(=NN)c2ccccc2)cc1	3727
C[C@@H]1CN([C@@H](C)CO)C(=O)c2cc(NC(=O)Nc3cccc4ccccc34)ccc2O[C@@H](C)CCCCO[C@H]1CN(C)C(=O)c1ccccc1	3794
CN(Cc1cn(Cc2ccc(F)cc2)nn1)C1CN(Cc2cn(Cc3ccc(F)cc3)nn2)S(=O)(=O)C1 (stereo unspecified)	5454
CC(=O)c1ccc(NC(=O)CN2CCN(S(=O)(=O)c3ccc4c(c3)OCCO4)CC2)cc1	4883
O=C(Nc1cccc(Cl)c1)c1ccc2sc([C@H]3C[C@H](O)[C@@H](CO)O3)nc2c1	2971
CC(C)Oc1ccc(CN2CCC2(C)C(=O)Nc2ccc3c(c2)OCO3)cc1 (stereo unspecified)	3702
C(=C\c1ccccc1)/CN1CCN(C(c2cccc3ccccc23)c2nnnn2Cc2ccccc2)CC1 (stereo unspecified)	6350
Cc1ccc(-c2ccc(CN3C(CC(C)C)C(=O)N(Cc4cn(CCC5OCCCO5)nn4)CCS3(=O)=O)cc2)cc1 (stereo unspecified)	2992
CCc1nc2c(OCc3ccc(Cl)cc3)cccn2c1N(C)C(=O)c1ccc(C)cc1	3891
CCCCC(=O)N1C(C)CCC1C (stereo unspecified)	3781
Cc1ccc(S(=O)(=O)N2C[C@H]3[C@H]4C(=O)N(c5ccccc5)C(=O)[C@H]4C[C@H](OC(=O)NC4CCCC4)[C@@]3(O)C2)cc1	6372
CC1=C(C(=O)N2CCOCC2)CC(CC(=O)NC2CCCC2)C(=O)N1Cc1ccc(C(C)(C)C)cc1 (stereo unspecified)	3672
CC(C)C[C@@H](CN1CCC[C@H]1CN1C(=O)C(=O)NC[C@@H]1Cc1ccccc1)N1C[C@H](Cc2ccc(O)cc2)N(CC2CCCCCC2)C(=O)C1=O	4007
Cc1cc(N2CCN(C(=O)Oc3ccc([N+](=O)[O-])cc3)CC2)c2ccccc2n1	5692

Reprinted from the results shown for reference:
Molecule	Autofluor counter
CCc1nc2c(OCc3ccc(Cl)cc3)cccn2c1N(C)C(=O)c1ccc(C)cc1	3891
CCCCC(=O)N1C(C)CCC1C (stereo unspecified)	3781
Cc1ccc(S(=O)(=O)N2C[C@H]3[C@H]4C(=O)N(c5ccccc5)C(=O)[C@H]4C[C@H](OC(=O)NC4CCCC4)[C@@]3(O)C2)cc1	6372
CC1=C(C(=O)N2CCOCC2)CC(CC(=O)NC2CCCC2)C(=O)N1Cc1ccc(C(C)(C)C)cc1 (stereo unspecified)	3672
CC(C)C[C@@H](CN1CCC[C@H]1CN1C(=O)C(=O)NC[C@@H]1Cc1ccccc1)N1C[C@H](Cc2ccc(O)cc2)N(CC2CCCCCC2)C(=O)C1=O	4007
Cc1cc(N2CCN(C(=O)Oc3ccc([N+](=O)[O-])cc3)CC2)c2ccccc2n1	5692

Additional structures.
Molecule	Autofluor counter
COCC(=O)N(C)C[C@H]1Oc2ncc(C#C[C@H](C)O)cc2C(=O)N([C@@H](C)CO)C[C@H]1C	3644
Cc1ccc(S(=O)(=O)NC(=O)C2(C)CCN2C(=O)c2c(C)noc2C)cc1 (stereo unspecified)	3459
Cn1nccc1-c1ccc(C(=O)Nc2cccc(NS(C)(=O)=O)c2)c2occc12	4009
CCCc1c(-c2cccc(Cl)c2)ncn1Cc1ccccc1OC	5567
CN(C)CCNC(=O)c1cccc(-c2cnc3c(NC=O)cc(-c4ccc(F)cc4)cn23)c1	4209
CC(=O)Nc1ccc(-c2ccnc3c2CC(C(=O)Nc2ccc4c(c2)OCO4)O3)cc1 (stereo unspecified)	2982
CC[C@@H]1CC2=C(C(=O)OC(C)(C)O2)[C@H](c2ccc(Cl)cc2)O1	5436
CN(C)C=Nc1ccc([N+](=O)[O-])c2ccccc12	2720
CC(C)Nc1nc(NCCO)nc2ccccc12	5633
O[C@H]1C[C@H](c2ccc(Cl)cc2)N(CC2CCCCC2)C[C@@H]1n1cc(C2CC2)nn1	3786
O=C1NN=C2CCCCCCC12 (stereo unspecified)	2854
CN(Cc1ccccc1)C(=O)c1csc([C@H]2C[C@H](O)[C@@H](CO)O2)n1	3546
COCc1ccc(C(=O)N2CCCC(N3CCN(c4cccc(Cl)c4)CC3)C2)s1 (stereo unspecified)	3638
Cc1cccc(C(=O)OCC(=O)N2c3ccccc3CC2C)c1C (stereo unspecified)	4174
OC(c1ccccc1)(c1nc(-c2cccc(F)c2)cs1)C(F)(F)F (stereo unspecified)	3769
CC1(Oc2ccccc2-c2ccn[nH]2)CCN(Cc2ccc(OC(F)(F)F)cc2)C1 (stereo unspecified)	3632
c1ccc(Oc2ccccc2-c2cc(NCCc3cccnc3)n3nccc3n2)cc1	4151
O=C(CN1CCN(c2cccc(C(F)(F)F)c2)CC1)Nc1ccc2c(c1)OCCCO2	3457
CC(=O)Nc1c(-c2ccc(C)cc2)nc2ccc(Cl)cn12	2865
CC(=O)Nc1ccc(NC(=O)c2csc([C@@H]3C[C@H](O)[C@@H](CO)O3)n2)cc1	2877
Cc1ccc(Nc2nc(N)nc(N)c2N=O)cc1Cl	5928
CC(C)c1ccc(NC(=O)COC(=O)Cn2cnc3c2c(=O)n(C)c(=O)n3C)cc1	3543
CCCCN(C=O)c1c(CC)nc2c(OCc3ccc(Cl)cc3)cccn12	3767
CCN(CC)CCCNc1cc(C)c(C#N)c2nc3ccccc3n12	3052
COc1ccccc1S(=O)(=O)N(C)C[C@@H]1OCc2cn(nn2)CCCC(=O)N([C@H](C)CO)C[C@H]1C	4063
CCCCC[C@@H](C)N1C[C@@H](COCc2ccccc2)Oc2cc(N3CC[C@H](O)C3)ccc2S1(=O)=O	5218
CCOC(=O)[C@]12CCCC=C1N(Cc1ccc3c(c1)OCO3)C(=O)[C@H](CC(=O)N1CCCCC1)C2	6177
O=C(NCc1ccccc1)[C@@H]1CCCN1C(=O)[C@@H]1CCCN1C(=O)c1cccc2ccccc12	6432
Cc1cc(F)ccc1NC(=O)c1ccc(NS(=O)(=O)c2cccs2)cc1	3681
C#CCN(C[C@@H]1[C@@H](OC(=O)NCc2ccc(OC)c(OC)c2)[C@@H](OC(=O)NCc2ccc(OC)c(OC)c2)Cn2c(=O)n(CCCCCC)c(=O)n21)S(=O)(=O)c1ccc(C)cc1	3399
CCc1nc2c(OCCOc3ccc(F)cc3)cccn2c1N(C)C(=O)c1ccc(C)cc1	3957
COc1cccc(Nc2nc(C(N)Cc3ccccc3)cs2)n1 (stereo unspecified)	3732
CC(C)C[C@@H](CN1CCC[C@@H]1CN1C(=S)NC[C@@H]1Cc1ccc(O)cc1)N1C[C@H](Cc2ccccc2)N(CCc2ccccc2)C1=S	6067
COCOCCn1cc(CN2CCS(=O)(=O)N(Cc3ccc(-c4cccc(CO)c4)cc3)C(CC(C)C)C2=O)nn1 (stereo unspecified)	3887
O=S(=O)(Nc1cccc(F)c1)c1ccc(S(=O)(=O)N2CCOCC2)cc1	2905
COc1ccc(NC(=O)N2Cc3ccccc3-n3nncc3C2)cc1	3768
O=c1cc(CN2CCCC2)c2c(ccc3ccccc32)o1	5894
CC(C)n1nnnc1C1c2ccccc2C(=O)N1CCc1ccc(O)cc1 (stereo unspecified)	6372
CC1(C(=O)Nc2cccc(OC(F)(F)F)c2)Cc2c(-c3ccc(C(N)=O)cc3)ccnc2O1 (stereo unspecified)	4135
CC(c1ccccc1)n1ccnc1CO (stereo unspecified)	3763
COc1ccc(-c2nc3c(Cl)cc(C(F)(F)F)cn3c2Cc2cccc(Cl)c2)cc1OC	7645
CC1(C(=O)NS(=O)(=O)c2cccs2)CCN1C(=O)CC1CC1 (stereo unspecified)	2824
CC(C)C1C(=O)N(Cc2cn(CCC3OCCCO3)nn2)CCS(=O)(=O)N1Cc1ccc(-c2cccc(N(C)C)c2)cc1 (stereo unspecified)	3418
O=C1c2ccccc2C(c2nnnn2-c2ccc3c(c2)OCCO3)N1Cc1ccccc1 (stereo unspecified)	5801
Cn1c(=O)c2cc(NC(=S)NCc3ccccc3F)ccc2n1Cc1ccccc1	3075
COc1ccc(CN2CCC[C@]3(N[C@H](c4ccccc4)[C@@H]4C(=O)N(C)C(=O)[C@@H]43)C2=O)cc1	2959
C/C(COc1ccccc1)=N\NC(=O)c1nnn(-c2nonc2N)c1CSc1ccc(C)cc1	2933
CC1(C)OC(=O)C2=C(C[C@@H](C3CCCCC3)O[C@@H]2c2ccc(F)cc2)O1	6282
CNc1cncc(-c2ccc(OCCCN(C)C)nc2)n1	4050
COc1ccc(CNC(=O)c2sc(=O)n(Cc3ccc(-c4ccccc4)cc3)c2C)cc1OC	5835
COc1cc(C(=O)N(C)C2CCCCC2)cc(OC)c1OC	3517
COc1cccc(C2CCN(C)C2)c1 (stereo unspecified)	2743
O=c1n(Cc2ccccc2)c(O)c2n1Cc1ccccc1N=C2c1ccc(C(F)(F)F)cc1	5512
C/C=C1\NC(=O)[C@H](C)NC(=O)[C@@H](NC(=O)[C@H](Cc2ccc(O)cc2)NC(=O)[C@@H](NC(=O)/C(C)=C/C)C(C)C)[C@@H](C)OC(=O)[C@H](CC(C)C)NC(=O)[C@@H](CCC(=O)O)NC1=O	4168
CS(=O)(=O)N1CCCCC1c1cc(C(=O)Nc2cccc3c2CCCC3)no1 (stereo unspecified)	4011
Cc1ccc(CSc2nnc(-c3ccccn3)n2Cc2cccs2)cc1	3569
CC1=C(C(=O)Nc2cc(C(=O)NCc3ccccc3)ccc2C)SCCO1	3039
Cn1ccc2c(N3CCCCCC3)cc3c(c21)C1CCC3C1 (stereo unspecified)	5482
OC(c1ccc(Cl)cc1)c1ncc(-c2ccccc2Cl)[nH]1 (stereo unspecified)	3909
CC(C)N(C)c1ncnc2c1ncn2[C@H]1CN(CCN2CCOCC2)C[C@@H](CO)O1	3968

Five compounds from above, sorted by SMILES length, high to low:
Molecule	Autofluor counter
COc1ccc(CN2CCC[C@]3(N[C@H](c4ccccc4)[C@@H]4C(=O)N(C)C(=O)[C@@H]43)C2=O)cc1	2959
CC1(C)OC(=O)C2=C(C[C@@H](C3CCCCC3)O[C@@H]2c2ccc(F)cc2)O1	6282
C/C(COc1ccccc1)=N\NC(=O)c1nnn(-c2nonc2N)c1CSc1ccc(C)cc1	2933
OC(c1ccc(Cl)cc1)c1ncc(-c2ccccc2Cl)[nH]1 (stereo unspecified)	3909
COc1cc(C(=O)N(C)C2CCCCC2)cc(OC)c1OC	3517

The results go on.
canonical_smiles | Autofluor counter
COCCCNC(=O)c1cc(S(=O)(=O)N2CCC3(CC2)OCCO3)ccc1F | 3382
COc1cccc(C(O)c2nc(-c3cccc(C(=O)O)c3)cs2)c1 (stereo unspecified) | 3759
OC[C@@H]1CN(Cc2ccco2)C[C@H](n2cnc3c(N4CCOCC4)ncnc32)O1 | 3848
CCOC(=O)[C@]12CCCC=C1N(Cc1ccco1)C(=O)[C@H](CC(=O)NCc1cccc3ccccc13)C2 | 6549
O=C(Nc1ncnc2c1ncn2[C@@H]1O[C@H](/C=C/C(=O)N2CCN(c3ccc(F)cc3)CC2)[C@@H](O)[C@H]1O)c1ccccc1 | 5887
COc1cccc(C(O)c2nc(-c3cc4ccccc4o3)cs2)c1 (stereo unspecified) | 3684
CN(C)CCNC(=O)c1[nH]c(C(F)(F)F)nc1-c1ccccc1 | 4135
O=C(O)c1ccc(S(=O)(=O)N2CCCCCCC2)cc1 | 3585
COc1cccc(-c2cc(C(=O)O)c3cc4ccccc4cc3n2)c1OC | 3758
CCC(=O)N1CCC1(C)C(=O)Nc1cccc(OC)c1 (stereo unspecified) | 3717
O=C(COC(=O)c1cc(S(=O)(=O)N2CCCCC2)ccc1Cl)NC1CCCCC1 | 3643
COc1ccc2sc3cccc(NCCN(C)C)c3c(=O)c2c1 | 6263
COc1ncnc2c1ncn2CCCN1CCN(c2ccccn2)CC1 | 2818
CC(C)=CCn1c2ccc(NC(=O)NCc3ccc(F)cc3)cc2c(=O)n1C | 3880
CCN(Cc1ccncc1)C(=S)Nc1ccccc1C | 3465
NC(Cc1ccccc1)c1csc(Nc2nccc(C(F)(F)F)n2)n1 (stereo unspecified) | 3695
CCOC(=O)C1=CCN(S(=O)(=O)c2ccccc2Br)C1c1cccc(C)c1 (stereo unspecified) | 5932
CC1(C(=O)Nc2ccc3[nH]ncc3c2)CCN1C(=O)C/C=C/c1ccccc1 (stereo unspecified) | 4220
COc1cccc(NC(=O)N2CCc3nc(Nc4cc(Cl)cc(Cl)c4)ncc3C2)c1 | 3983
COc1ccc(Nc2nc(NCc3cccs3)nc3ccsc23)cc1OC | 3185
CN1CCN(S(=O)(=O)c2ccc(F)cc2)CC1 | 3668
O=Nc1ccc(NO)c2ccccc12 | 2946
CN(Cc1ccc(F)cc1)C(=O)CN1CCN(S(=O)(=O)c2ccc3c(c2)OCCCO3)CC1 | 3369
COC(=O)c1cccc(CN2C(=O)C(C)Sc3ccc(C)cc32)c1 (stereo unspecified) | 3871
COc1ccc(C(CC(=O)c2ccc3c(c2)OCO3)c2c(O)c3ccccc3oc2=O)cc1OC (stereo unspecified) | 4144
COc1cccc(-c2cnc(C(O)c3ccc(Cl)c(F)c3)[nH]2)c1 (stereo unspecified) | 2970
O=C(N/N=C/c1ccc(Cl)cc1)c1ccc2nc[nH]c2c1 | 3634
COc1ccc(Nc2c(-c3cc4ccccc4o3)nc3nc(C)cc(C)n23)cc1 | 6443
CC(=O)NC(c1ccccc1)c1nc(-c2cc(F)cc(F)c2)cs1 (stereo unspecified) | 2883
CCCc1cnc(Nc2nc(C(N)Cc3ccc(OC)cc3)cs2)nc1 (stereo unspecified) | 2806
CCCN(C)C[C@H]1Oc2cc(C#Cc3ccc(F)cc3)ccc2S(=O)(=O)N([C@H](C)CO)C[C@@H]1C | 3147
COc1cccc(C(C)(O)c2nc(-c3csc4ccccc34)cs2)c1 (stereo unspecified) | 3436
O=S1(=O)C[C@H](N2CCOCC2)[C@@H](COCc2ccccc2)N1 | 5403
CCCNC(=O)C1(C)CCCN(Cc2cc(-c3ccccc3)nn2C)C1 (stereo unspecified) | 3783
C[C@H]1CN([C@@H](C)CO)C(=O)CCCn2nncc2CO[C@@H]1CN(C)Cc1cccc2c1OCCCO2 | 3596
COc1ccc(NC(=O)C[C@H]2C(=O)N(c3ccc(OC)cc3)C[C@@H]2c2ccc(Br)cc2)cc1 | 3724
Fc1cccc(Cc2c(-c3cccc(Br)c3)nc3c(Cl)cc(C(F)(F)F)cn23)c1 | 6379
